NS1 inh: influenza NS1 inhibition; S. cerevisiae slowed by influenza A NS1, growth recovery by OD600; Potency, µM (top dose mostly 46.1 µM), for inactives: at the top dose activity, positive = more growth; 0.4% of 270,000 active; active means well fitted rising curve with a large enough effect; inconclusive means small, poorly fitted or top-dose-only effect; inactive means no such curve, though single readings can be large or run the other way; further: nearly all actives have a fitted effect of over 50% in size
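OD600 was taken as the measure of yeast growth restored by compound in an NS1-expressing S. cerevisiae strain. Cells had been washed out of glucose medium and diluted 1:100 into galactose -URA medium, pH 6.0.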
Cruzain inh Det: inhibitors of Trypanosoma cruzi cruzain with detergent; P25779; purified cruzain, Z-FR-AMC fluorescence, 0.01% Triton; Potency, µM, without a hit: max response, negative = inhibition, most hits filed as inhibitors; 0.43% of 200,000 active;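 further: plate controls were neutral wells for no effect and buffer without enzyme for full effect; nearly all actives have a fitted effect of over 40% in size; top concentration of the series not given in the record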
Target sequence (P25779 123-467 limits assumed): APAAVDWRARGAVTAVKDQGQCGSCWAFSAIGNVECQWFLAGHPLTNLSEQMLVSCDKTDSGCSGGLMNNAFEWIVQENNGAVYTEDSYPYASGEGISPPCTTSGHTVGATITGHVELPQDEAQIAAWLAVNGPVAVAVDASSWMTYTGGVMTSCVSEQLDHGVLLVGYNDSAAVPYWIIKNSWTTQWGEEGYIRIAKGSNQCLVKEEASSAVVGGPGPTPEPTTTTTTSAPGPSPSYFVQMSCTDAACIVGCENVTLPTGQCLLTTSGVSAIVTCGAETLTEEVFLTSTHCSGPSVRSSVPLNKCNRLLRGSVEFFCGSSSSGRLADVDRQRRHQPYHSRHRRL
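Steps: dispense cruzain (1.5 nM final) in acetate buffer pH 5.5 with DTT and 0.01% Triton X-100; pin-transfer compounds; incubate 15 min RT; add Z-FR-AMC (2 uM final); read fluorescence every 30 s, using the 60 s intensity change.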
SARS PLP yeast: SARS-CoV PLP inhibition in yeast | S. cerevisiae expressing SARS-CoV PLpro, growth rescue; control for the full effect not named in the record | Potency, µM (highest dose often 32.9 µM), inactives show top-dose activity, positive = growth rescue | 0.19% of 330,000 active | AID 485353; active means well fitted rising curve with a large enough effect; inconclusive means small, poorly fitted or top-dose-only effect; inactive means no such curve, though single readings can be large or run the other way; further: 0% is about no effect; nearly all actives have a fitted effect of over 55% in size; growth read by luminescence after 48 h
MARV entry inh: blocks Marburg virus binding to or entry into cells. Marburg virus pseudotyped entry inhibition, cell reporter; control for the full effect not named in the record; about a third of the inactives were read at about 46 µM. Potency, µM (series often up to 37.8 µM), without a hit: at the top dose activity change, negative = inhibition, most hits filed as inhibitors. 1.8% of 300,000 active; active = well fitted inhibition curve with a large enough effect; inconclusive = small, poorly fitted or top-dose-only effect, or effect the other way; inactive = flat fitted curve, though single readings scatter; tested in HEK293 cells; about a fifth of its hits are not listed in these tables; further: on the % scale 0 is the no-effect control and ±100 the full control effect; luciferase read-out
Lassa entry inh: Lassa virus entry inhibition | Potency, µM (doses to about 37.9 µM), for inactives: top-dose activity change, negative = inhibition, actives largely listed as inhibitors | Lassa virus pseudotype entry inhibition, cell reporter; control for the full effect not named in the record | AID 540256 | 1.2% of 300,000 active; active means well fitted inhibition curve with a large enough effect; inconclusive means small, poorly fitted or top-dose-only effect, or effect the other way; inactive means flat fitted curve, though single readings scatter; tested in HEK293 cells; further: on the % scale 0 is the no-effect control and ±100 the full control effect; nearly all actives have a fitted effect of over 50% in size; luciferase read-out
StopGo reporter: lowers the luciferase signal of an FMDV 2A StopGo reporter; human cells with a luciferase reporter of 2A StopGo recoding; control for the full effect not named in the record; Potency, µM (highest dose often 57.9 µM), inactives show at the top dose signal change, negative = less light; 1.2% of 410,000 active; active = well fitted falling curve with a large enough effect; inconclusive = small, poorly fitted or top-dose-only effect; inactive = no such curve, though single readings can be large or run the other way; tested in HEK293T cells; further: on the % scale 0 is the no-effect control and ±100 the full control effect; nearly all actives have a fitted effect of over 45% in size; luciferase light after 4 h
Cruzain inh noDet: blocks cruzain activity in detergent-free assay. P25779. purified cruzain, Z-FR-AMC fluorescence, no detergent. Potency, µM, for the others: max response, negative = inhibition, actives largely listed as inhibitors. 2.3% of 200,000 active;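 further: plate controls were enzyme without inhibitor for no effect and buffer without enzyme for full effect; nearly all actives have a fitted effect of over 40% in size; top concentration of the series not given in the record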
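Detergent-free condition (0.00005% Triton X-100) in acetate buffer pH 5.5 with DTT. 1.5 nM enzyme and compound were pre-mixed 15 min, then 2 uM Z-FR-AMC substrate added; reaction progress from fluorescence change between first and third reads (60 s).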
RE007 growth inh: less growth of the S. pombe RE007 Vpr strain. S. pombe RE007 Vpr strain, BacTiter-Glo ATP luminescence, 24 h; control for the full effect not named in the record. Potency, µM (doses to about 92.2 µM), without a hit: top-dose activity change, negative = less growth. 0.21% of 360,000 active. AID 651644; active = well fitted falling curve with a large enough effect; inconclusive = small, poorly fitted or top-dose-only effect; inactive = no such curve, though single readings can be large or run the other way;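 further: on the % scale 0 is the no-effect control and ±100 the full control effect; nearly all actives have a fitted effect of over 50% in size; the assay follows cell death caused by Vpr and the record does not say whether a fall means rescue or toxicity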
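Fission yeast strain RE007, carrying one chromosomally integrated HIV-1 vpr copy, was seeded at OD 0.01 in PMG+AL medium with 23 nL pinned compound. After 24 h at 30 °C and 99% humidity, viability was read by BacTiter-Glo luminescence.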
Starred values were filed as active, the others as inactive; ? = inconclusive; · = not tested or not shown; & = joins results of further samples; [ ] = remark or other dose. Unless noted, the call rests on the fitted dose curve; in most records, active means well fitted curve in the direction sought with a large enough effect; inconclusive means small, poorly fitted or top-dose-only effect, or another doubt; inactive means no such curve, though single readings can be large; an effect the other way counts as inactive or inconclusive. Potency means the concentration at half of the fitted maximal effect. Hits appear at their usual frequency; any-hit rate near 4.5%.

SMILES	NS1 inh	Cruzain inh Det	SARS PLP yeast	MARV entry inh	Lassa entry inh	StopGo reporter	Cruzain inh noDet	RE007 growth inh
C/C(=N\N=C(/N)SC1CC(=O)N(c2ccc(Cl)c(Cl)c2)C1=O)c1cccs1 (configuration not stated)	-4%	-7.3%	-30%	-10%	-16%	·	32µM*	4%
O=C1c2ccccc2S(=O)(=O)N1CCS(=O)(=O)c1ccc(F)cc1	5%	·	0%	17%[46.1 µM]	25%[46.1 µM]	11%	·	6%
CSC1=NCCN1C(=O)c1ccc(Br)o1	?	-1.3%	21%	0%	·	17%	-3%	4%
Cc1ccc(CNc2ccc(-c3nc(-c4ccccn4)no3)cc2[N+](=O)[O-])cc1	·	-3.3%	·	-8%[46.1 µM]	3%[46.1 µM]	25%	?	·
COCCCN(C(=S)Nc1ccc(C)cc1Cl)C(C)c1ccncc1 (configuration not stated)	-9%	-1.9%	?	-51%	3%	-5%	24%	18%
O=C(Cn1[nH]c(=O)c2ccccc2c1=O)OCC(=O)N1CCCc2ccccc21	-12%	-2.7%	2%	-29%[46.1 µM]	7%	3%	-6%	16%
C(=N\N1CCN(C(c2ccccc2)c2ccccc2)CC1)/c1ccc2c(c1)OCO2	2%	·	6%	?	-22%	?	·	-3%
CCC(=O)Nc1cc(C(C)C)c(O)cc1C	-2%	7.5%	·	-1%	6%	-21%	-5%	4%
Nc1nnc(SCC(=O)Nc2cccc(Cl)c2)s1	·	·	-1%	8%	?	0%	·	-6%
CCOC(=O)/C(C#N)=N/Nc1ccccc1OC	-6%	-6.1%	3%	2%	0%	25%	-1%	0%
COc1ccc(C(=O)NCC(=O)OCc2ccc([N+](=O)[O-])cc2)cc1	·	·	-1%	-1%[46.1 µM]	?	-1%	·	0%
COc1ccc(NC(=O)CN(C)S(=O)(=O)c2ccc3c(c2)CCC(=O)N3)c(OC)c1	1%	-0.6%&2.7%	3%	?	-2%[46.1 µM]	-8%&-6%	1%&-1%	-4%
CC(=O)Nc1ccc(S(=O)(=O)N(C)CC(=O)OCC(=O)Nc2ccc3c(c2)OCO3)cc1	11%	0.9%	24%	7%	9%	0%	-9%	6%
CC1CCN(c2nc3ccc(C(=O)NCc4ccccc4Cl)cc3s2)CC1	·	-6.0%	·	?	?	-3%	?	·
COC(=O)c1ccc(Oc2ccc3nncn3n2)cc1	4%	0.3%	6%	20%	?	-26%	-14%	15%
Cc1nc2ccccc2c(=O)n1-c1cccc(NC(=O)c2cccs2)c1	·	·	-1%	-16%[46.1 µM]	?	-17%	·	1%
Cc1cc2c(cc1S(=O)(=O)CCC(=O)NC1CCC(C)CC1)OCC(=O)N2 (configuration not stated)	14%	-1.4%	-5%	·	-3%[46.1 µM]	0%&11%	-1%	10%
COc1ccccc1NC(=O)CCS(=O)(=O)c1ccc2nc(C)sc2c1	·	1.5%	·	·	-23%[46.1 µM]	-16%	13%	·
Cc1ccc(/C=C(/NC(=O)c2ccccc2)C(=O)NCCc2c[nH]c3ccccc23)o1	-12%	-4.6%	-6%	-13%	-4%	-4%	-7%	-3%
CC1CN(Cc2ccccc2Cl)CC(C)O1 (configuration not stated)	-4%	5.6%	·	3%	2%	·	-2%	4%
CC(=O)c1ccc(N2CCN(c3ncccn3)CC2)c([N+](=O)[O-])c1	-6%	·	-8%	-18%[46.1 µM]	-16%	-6%	·	10%
Cn1c(CSc2nc3ccccc3s2)nnc1SCC(=O)NCCCN1CCOCC1	7%	-3.9%	-17%	1%	9%	-5%	-12%	-5%
CCN(CC)c1ccc(CC2C(=O)N(C)C(=O)N(C)C2=O)cc1	-15%	-4.6%	6%	0%	-12%	-4%	4%	-17%
C#CCNC(=O)C1=C[C@H](C2CCCCC2)[C@@H](CCCO)[C@H](OCC)O1	2%	·	0%	·	·	-14%	·	12%
CCOC(=O)/C(C#N)=C1\CCCN1CC(N)=S	1%	-3.3%	-14%	?	0%	13%	-2%	-28%
Next section
SMILES	NS1 inh	Cruzain inh Det	SARS PLP yeast	MARV entry inh	Lassa entry inh	StopGo reporter	Cruzain inh noDet	RE007 growth inh
CCC(=O)Nc1c(-c2ccccc2Cl)c(=O)c2ccccc2n1CC	1%	·	0%	·	·	-14%	·	12%
Cc1ccc2nc(C)c3c(c2c1)COC3	-11%	-3.8%	8%	-20%	-7%	-23%	2%	-15%
O=[N+]([O-])c1ccc(Oc2c(F)c(F)nc(N3CCCC3)c2F)cc1	-6%	-2.1%	·	-26%	27%	?	-1%	-14%
CC(C)(C)NC(=O)NC(=O)CSc1n[nH]c(-c2ccccc2Br)n1	·	·	-1%	?	3%	0%	·	33%
CN1CCN(C2=NC3(CCCC3)C(C#N)C(=O)N2)CC1 (configuration not stated)	8%	-2.4%	-4%	14%	17%	4%	-2%	-4%
CCCCNS(=O)(=O)c1ccc(NC(=O)C2c3ccccc3Oc3ccccc32)cc1	14%	3.6%	8%	-5%	?	6%	-23%	·
Fc1ccc(-c2nnsc2Sc2ccccn2)cc1	·	·	1%	?	-2%[46.1 µM]	6%	·	22%
Clc1cccc2sc(N3CCCC3)nc12	-9%	3.0%	-2%	3%	1%	34%[activator]	0%	-28%
COc1cc(C)nc(NC(=O)NC(=O)c2ccc(C(F)(F)F)cc2)n1	0%	·	-3%	?	17%[46.1 µM]	-13%	·	-3%
COc1ccc(-n2c(SCc3nc(-c4ccc(C)cc4)no3)nnc2-c2ccccc2)cc1	·	-6.4%	·	7%[46.1 µM]	?	0%	?	·
CC(C)CNc1c(N)c(=O)oc2ccccc12	-1%	-1.9%	1%	-22%	10%	·	4%	4%
C/C(Cc1ccccc1)=N\NC(=O)CNC(=O)COc1ccccc1	0%	·	1%	24%	-2%	-2%	·	-20%
C=CCN(CC=C)CCCOc1ccccc1C(=O)OC	·	·	-1%	12%[46.1 µM]	-30%[46.1 µM]	-3%	·	0%
CN(CCCN1CCOCC1)C(=O)c1cc(COc2ccc(F)cc2F)on1	-1%	·	0%	·	·	8%	·	4%
COCCCNC(=O)Cn1c(=O)n(-c2ccc(C)c(C)c2)c(=O)c2c3c(sc21)CCCCC3	·	-1.7%	·	23%[46.1 µM]	-12%[46.1 µM]	-16%	-8%	·
Cc1cc(C)n(CCNS(=O)(=O)c2ccccc2)n1	-2%	·	1%	0%[46.1 µM]	-2%[46.1 µM]	8%	·	18%
Cc1ccc(-n2ncc(C(=O)NCCCN3CCc4ccccc4C3)c2C2CCN(C(=O)OC(C)(C)C)CC2)c(C)c1	·	-3.1%	·	·	?	-12%	-4%	·
O=C(Oc1c(-c2ccccc2Cl)oc2ccccc2c1=O)c1ccc(Cl)cc1	23%	-5.8%	-6%	?	?	8%	?	1%
Cc1cc(=O)n2c(C(=O)Nc3ccc(C(=O)OC(C)C)cc3)c(C(=O)Nc3ccccc3)sc2n1	·	·	-4%	?	23µM*	-9%	·	-12%
CCOC(=O)C1=C(C)NC(C)=C(C(=O)OCC)C1C(=O)OCC(=O)N1CCc2ccccc2C1	-10%	1.9%	-6%	-25%&-25%	?	5%	?	16%
O=C(CC1c2ccccc2Oc2ccccc21)NCc1ccco1	-91%	-0.6%	?	-15%	3%	·	-3%	-4%
CCN(CC)c1ccc(NC(=O)Cn2c(C(C)NC(=O)c3ccccc3)nc3ccccc32)cc1 (configuration not stated)	1%	-17%	28%	-20%	14%	-21%	-5%	·
CC1CC(C)CN(CCCNC(=O)CN2C(=O)COc3ccc(S(=O)(=O)N4CCOCC4)cc32)C1 (configuration not stated)	-7%	·	-3%	·	·	0%	·	4%
COc1ccc(N(C)S(=O)(=O)c2cccc(C(=O)OCC(=O)N(C)c3ccccc3)c2)cc1	·	·	-15%	-6%	?	?	·	0%
O=S(=O)(c1cccc(F)c1)N1CCC(CO)(Cc2cccc(F)c2)CC1	-4%	·	0%	-28%[46.1 µM]	-12%	-28%	·	-3%
(further entries)
SMILES	NS1 inh	Cruzain inh Det	SARS PLP yeast	MARV entry inh	Lassa entry inh	StopGo reporter	Cruzain inh noDet	RE007 growth inh
CCn1c(CCNC(=O)c2ccc(C)cc2)n[nH]c1=S	22%	-0.3%	14%	-4%	?	-4%	12%	-6%
Cc1n[nH]c(C)c1CCC(=O)N/N=C/c1c(C)[nH]c2ccccc12	6%	·	1%	-23%[46.1 µM]	2%[46.1 µM]	?	·	-1%
O=C1CCc2cc(S(=O)(=O)N3CCCCC3)cc3c2N1CC3	·	·	1%	12%[46.1 µM]	0%	-10%	·	-6%
Cn1cccc1/C=N/n1c(-c2ccc(Cl)cc2)n[nH]c1=S	2%	1.2%	-1%	?	?	-10%	?	13%
O=C(Nc1ccc(NC(=O)c2cccs2)cc1)c1ccc(Br)cc1	·	-2.0%	·	·	11%[46.1 µM]	-14%	-16%	·
COc1ccc(NC(=O)CCC(=O)N/N=C/c2ccncc2)cc1	7%	·	0%	·	·	-3%	·	11%
COc1ccc2c(Cl)c(C(=O)OCC(=O)c3ccc4c(c3)NC(=O)CO4)sc2c1Cl	-1%	·	-1%	·	·	?	·	-2%
COc1ccc(S(=O)(=O)N(C)CC(=O)NCc2cccnc2)cc1Cl	2%	4.4%	17%	21%	6%	2%	0%	5%
Cc1ccccc1OCC(=O)Nc1ccc(N2CCN(C(=O)C(C)C)CC2)c(Cl)c1	-33%	1.4%	-15%	?	?	14µM*	10%	?
C=CCn1c(N)cc(=O)nc1SC(C)C(=O)Nc1ccc(C(=O)OCC)cc1 (configuration not stated)	0%	·	0%	14%	21%	0%	·	-1%
CCCn1c(SCC(=O)Nc2cccc(C)n2)nnc1C(C)C	0%	·	0%	15%[46.1 µM]	8%	19%	·	2%
COc1ccc(Cn2c(CO)cnc2SCc2ccccc2C)cc1	·	-1.9%	·	·	15%[46.1 µM]	39%[activator]	1%	·
COc1ccc(NC(=O)Cn2c(C)cc3ccccc3c2=O)c(OC)c1	·	-0.6%	·	?	-6%[46.1 µM]	-10%	-1%	·
O=C(CCS(=O)(=O)c1cccc2nonc12)NC1CCCCCC1	-4%	-1.0%	3%	5%	2%	36%[activator]	-4%	5%
Cc1ccc(C(=O)N/C(=C/C=C\c2ccccc2)C(=O)NCc2ccco2)cc1	?	-15%	-19%	?	?	30%[activator]	-24%	-11%
